# Screening results: PubChem, Fisher Drug Discovery Resource Center
# NPYLR7 ag: agonists of mosquito NPYLR7 receptor, primary screen, cell-based, Aedes aegypti, calcium fluorescence, mosquito biting behavior; Aedes aegypti neuropeptide Y-like receptor 7 (NPYLR7); HEK293T NPYLR7/Galpha15, GCaMP6s calcium fluorescence; activation, % at 10 µM; 270,000 tested, 0.15% active; in the data active means activation above about 40%;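 further: 0% = vehicle and 100% = reference agonist at the receptor; some compounds past the cut are filed as inactive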
# NPYLR7 ag max-min: also measured in NPYLR7 ag; calls as there; activation, %; measured here: Max-Min RFU normalised activation; some inactives read as strong as hits;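 span of the calcium signal over five minutes; 0% = vehicle and 100% = native peptide agonist; compound fluorescence can raise it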
# Active calls of the source: *; & = joins results of further samples.
SMILES,NPYLR7 ag,NPYLR7 ag max-min
Cn1cnc2ccc(NCCC(=O)C34CC5CC(CC(C5)C3)C4)cc21,-1.6,-2.4
O=C(CSc1nc(=O)n(CCCN2CCOCC2)c2c1CCCC2)N1CCc2ccccc21,-1.2,0.1
Cc1cc(=O)c2cc(-c3cn[nH]c3)ccc2[nH]1,2.3,-9.3
Cn1cccc1-c1cc(C(=O)N2CCc3nc[nH]c3C2)[nH]n1,-6.9,-14.1
CC(=O)Nc1nc(CN(C)CC23CC4CC(CC(C4)C2)C3)cs1,2.0,1.7
Cc1c(C2CC(=O)Nc3n[nH]c(C4CCC4)c32)c(=O)n(-c2ccccc2)n1C (stereo not drawn),-7.5,-8.9
O=C(CSc1nnc2c(Cl)cc(Cl)cn12)c1ccc(Cl)s1,-0.1,2.4
CC(C)c1ccc(NC(=O)N2CCN(C(C(=O)N3CCCC3)C3CCCC3)CC2)cc1 (stereo not drawn),-5.6,0.9
CCc1ccc(C(=O)CSc2nc3ccccc3c(=O)n2CCC(=O)OC)s1,2.7,1.9
Cc1nc(SCCC(=O)N2CCc3c(Cl)cccc3C2)n[nH]1,3.6,11.4
CCCCC(=O)N(C/C(C)=C/c1ccccc1)CC1CCNCC1,-2.1,-2.5
O=S(=O)(NCC1CCCO1)c1cc(Cl)ccc1Br (stereo not drawn),7.3,1.3

# Single records, from the list above.
# `Cn1cnc2ccc(NCCC(=O)C34CC5CC(CC(C5)C3)C4)cc21` as listed: NPYLR7 ag = -1.6; NPYLR7 ag max-min = -2.4
# `O=C(CSc1nc(=O)n(CCCN2CCOCC2)c2c1CCCC2)N1CCc2ccccc21` as listed: NPYLR7 ag = -1.2; NPYLR7 ag max-min = 0.1
# `Cc1nc(SCCC(=O)N2CCc3c(Cl)cccc3C2)n[nH]1` as listed: NPYLR7 ag = 3.6; NPYLR7 ag max-min = 11.4

# Following part
SMILES,NPYLR7 ag,NPYLR7 ag max-min
COc1ccc(OC)c(NC(=O)NCCNc2cc(-n3nc(C)cc3C)nc(C)n2)c1,-7.7,-12.4
O=C(NC1CCN(C(=O)c2ccco2)CC1)c1cccc(C(F)(F)F)c1,-2.6,-3.9
Cn1cnc2c(Cl)ncnc21,-2.0,-4.0
Fc1ccc(Br)cc1C1Nc2cccc3cccc(c23)N1,3.7,-0.7
Cc1ccsc1CN(CC(C)C)C(=O)c1ccc2nccn2c1,-6.0,-12.5
CC(C)(C)C(=O)N1CCN(c2nc(N3CCOCC3)nc(-n3ccnc3)n2)CC1,-11.8,-15.3
CCc1noc(CN(CC)C(=O)CN2CCOc3ccccc3C2)n1,2.8,-0.6
Cc1ccccc1NC(=O)NC(C)c1nnc(SCc2ccccc2)n1-c1ccc([N+](=O)[O-])cc1 (stereo not drawn),8.9,15.1
CCOc1ccc(NC(=O)CCC(=O)NNC(=O)c2cccc([N+](=O)[O-])c2)cc1,-0.8,-1.3
CN(Cc1ccon1)c1ccc(-c2nc(Cc3ccccc3)no2)cn1,6.6,-1.5
CN(CC(=O)NCCc1ccc(F)cc1)Cc1ccc(C(F)(F)F)cc1,4.7,3.5
COc1ccc(S(=O)(=O)N2CCc3ccccc3C2)cc1N1CCN(C(=O)/C=C/c2ccccc2Cl)CC1,16.4,8.3
CC1=NCCN1,-1.9,7.5
CCC(O)CN(Cc1ccco1)Cc1ccc(C)s1 (stereo not drawn),-0.8,9.7
C=C(C)C(C)(C)C(=O)NCc1cccnc1Oc1ccccc1OC,-3.6,-4.3
CCC(C)NCc1ccccc1OS(=O)(=O)c1ccc(NC(C)=O)cc1 (stereo not drawn),2.6,0.1
Cc1cc(C)c(C)c(OCCNC2CCCC2)c1,-3.1,15.3
CN(C)c1noc(C2=NOC(c3ccccc3)C2)n1 (stereo not drawn),10.4,11.9
COC(=O)[C@@H]1C[C@@H](NC(=O)c2ccc(C#CC(C)(C)O)o2)CN1C,2.2,2.0
CCS(=O)(=O)CCSc1cc(C#N)ccn1,1.4,15.1
CCCCOC(=O)Cn1c2ccccc2c2nc3ccccc3nc21,14.5,19.6
C=CCN(Cc1ccccn1)C(=O)C(C)Oc1cc(C)ccc1C (stereo not drawn),-0.6,1.8
Cc1cc(C(=O)Nc2ccc3c(c2)OCCCO3)cc(S(=O)(=O)N(C)C)c1C,3.0,9.0
CCCNCC(=O)c1c(CC)[nH]n(-c2cccc(C)c2C)c1=O,16.8,9.4
CCCC(=O)OCC(=O)NCc1ccc(OC)cc1,-4.6,-6.4
O=C(/C=C/C(=O)N1CCCC1c1cccs1)NCc1cccnc1 (stereo not drawn),-0.1,0.0
CC(C)SCC(=O)N(C)CC1CCCCO1 (stereo not drawn),15.7,14.5
O=C(NC1CCSc2ccc(F)cc21)C1CCCc2ccccc21 (stereo not drawn),0.2,-1.9
Cc1ccc(NC(=O)N2CCN(c3nc(C)nc(C)c3Cc3ccccc3F)CC2)c(C)c1,5.0,4.8
CC1CCN(c2ccc(NC(=O)c3ccc4ccccc4c3)cc2C(=O)N2CCCC2)CC1,-0.3,6.6
O=C(Nc1ccc(Cl)cc1)c1cnn2c(C(F)(F)F)cc(-c3ccc(Br)cc3)nc12,4.8,11.9
O=C(NCCn1ncc2c(=O)n(Cc3cccc(C(F)(F)F)c3)cnc21)c1ccc2c(c1)OCO2,-4.5,-10.3
CC1CN(CC2CCCN2Cc2cccc(C(N)=O)c2)CC(C)O1 (stereo not drawn),-2.3,-3.2
C=CCOc1ccccc1CN1C(=O)C2(SC(NC(C)=O)=NN2C(C)=O)c2cc(C)ccc21 (stereo not drawn),1.9,1.9
Cc1nn(-c2ccccc2)c(Cl)c1COc1cc(Cl)ccc1C(N)=O,1.0,2.1
O=C(C1CCCN(S(=O)(=O)N2CCOCC2)C1)N1CCCCC1 (stereo not drawn),2.5,0.4

# 3 compounds out of the list, arranged by number of heavy atoms, ascending.
SMILES,NPYLR7 ag,NPYLR7 ag max-min
Cc1cc(=O)c2cc(-c3cn[nH]c3)ccc2[nH]1,2.3,-9.3
CCCCOC(=O)Cn1c2ccccc2c2nc3ccccc3nc21,14.5,19.6
O=C(CSc1nc(=O)n(CCCN2CCOCC2)c2c1CCCC2)N1CCc2ccccc21,-1.2,0.1

# 5 of the compounds above, with two lines to a compound.
# Every second line gives: NPYLR7 ag | NPYLR7 ag max-min
- CC(C)SCC(=O)N(C)CC1CCCCO1 (stereo not drawn)
  15.7 | 14.5
- O=C(C1CCCN(S(=O)(=O)N2CCOCC2)C1)N1CCCCC1 (stereo not drawn)
  2.5 | 0.4
- O=C(/C=C/C(=O)N1CCCC1c1cccs1)NCc1cccnc1 (stereo not drawn)
  -0.1 | 0.0
- O=C(NC1CCSc2ccc(F)cc21)C1CCCc2ccccc21 (stereo not drawn)
  0.2 | -1.9
- C=CCOc1ccccc1CN1C(=O)C2(SC(NC(C)=O)=NN2C(C)=O)c2cc(C)ccc21 (stereo not drawn)
  1.9 | 1.9

# (listing goes on)
SMILES,NPYLR7 ag,NPYLR7 ag max-min
Cn1c(Cc2cccs2)nnc1SCC(=O)C12CC3CC(CC(C3)C1)C2,-0.5,-5.1
COc1cc(C(=O)N2CCc3ccccc3C2c2ccccc2Cl)cc(OC)c1OC (stereo not drawn),-5.4,2.8
Cc1n[nH]c(C)c1CCN(C)Cc1cn(C)nc1-c1ccc2c(c1)OCCO2,-2.0&0.8,-2.2&-0.8
COc1ccc(F)cc1C(=O)C1CCCN(C(=O)Nc2ccc(F)cc2)C1 (stereo not drawn),11.4,4.1
COCCN(CC(=O)N(C)C)S(=O)(=O)c1cc(F)ccc1F,9.6,4.8
COn1c(C2CC2)nc2cc3ccccc3cc2c1=O,6.5,658.7
CN1CCNC(=O)C1CC(=O)N1CCN(CCc2ccncc2)CC1 (stereo not drawn),-0.5,15.6
COc1ccc(F)cc1Oc1ccc2c(C3CC3)noc2n1,3.6,0.8
COCCc1nc2ccc(C(=O)N3CCCC(C(=O)N4CCOCC4)C3)cc2o1 (stereo not drawn),3.2,2.4
CCN(C(=O)COc1nc(C(C)(C)C)no1)C1CC1,1.8,0.5
CCC(C)NC(=O)NC(=O)CSc1nnc(C2CC2)n1C1CC1 (stereo not drawn),-2.6,22.8
O=C(O)CC/C(=N/NC(=O)CCc1ccccc1)c1ccccc1,2.0,8.7
O=C1OC(/C=C/c2cccc(Cl)c2Cl)=NC/1=C/c1ccc2c(c1)OCO2,-6.6,-12.1
CC(Oc1cccc(Cl)c1)C(=O)NNC(=O)c1nn(C)c(=O)c2ccccc12 (stereo not drawn),-4.2,-1.0
COc1ccc(CCN2CC(C(=O)N3CCC(O)(c4ccccc4)CC3)CCC2=O)cc1 (stereo not drawn),-2.7,-3.7
CC[C@H]1CN(C(=O)c2ccc3[nH]c4c(c3c2)CCCC4)CC[C@@]1(C)O,5.9,-2.7
COCc1[nH]nc(N)c1-c1ccc(C)cc1,-2.0,-7.4
CCC(C)N(Cc1cccnc1)C(=O)c1ccc2nccn2c1 (stereo not drawn),16.3,5.0
OCCCNCC1CC1(c1ccccc1)c1ccccc1 (stereo not drawn),2.0,2.8
COC[C@@H]1CCCN1C(=O)C1CCCN1c1cc(Nc2cccc(Br)c2)ncn1 (stereo partly drawn),1.4,-1.0
CS(=O)(=O)c1ccc(C(=O)N(Cc2ccccn2)c2nc3c(F)cc(F)cc3s2)cc1,1.7,-1.7
O=C(NCc1ccco1)c1cnn2c(C(F)(F)F)cc(-c3ccc4c(c3)OCO4)nc12,-4.7,-11.4
O=C(NCc1ccccn1)c1cnn(-c2ccccc2Cl)c1-c1ccccc1,5.8,10.6
CC1=NC2=C(C(=O)CC(C)(C)C2)C(c2ccc([N+](=O)[O-])cc2)C1C(=O)OC1CCCCC1 (stereo not drawn),8.1,-0.4
CCOC(=O)c1c(NC(=O)c2ccc(C)cc2)sc(C(=O)Nc2ccccc2OC)c1C,-7.1,-15.2
Cc1ccn2c(NC(C)(C)CC(C)(C)C)c(-c3cccc(OC(=O)Cc4ccc(F)cc4)c3)nc2c1,5.9,11.4
CCC(CO)Nc1ccn2nccc2n1 (stereo not drawn),3.2,2.9
CC(c1ccc(-n2cncn2)cc1)N(C)C(=O)C1CCCN(C(=O)N2CCCC2)C1 (stereo not drawn),-4.0,-4.1
Cc1cc(C)nc(N(C)CC2CC(=O)N(C3CCCC3)C2)n1 (stereo not drawn),20.1,12.7
CN(C)CC[C@H](c1ccc(Cl)cc1)c1ccccn1,2.0&-9.4,-5.0&-14.2
O=C(NC1CC1)C1CCN(S(=O)(=O)N2CCCCCC2)CC1,21.7,10.5
CN(C)c1ccc(N=Nc2cccc(S(=O)(=O)C(F)F)c2)cc1,14.2,13.6
CCCn1ncc(C(=O)N2CCC(c3ccccc3C(=O)O)C2)c1C (stereo not drawn),-6.1,-10.2
COCC(=O)N1CCC(C(=O)NC2CCCC[C@H]2NC(=O)c2ccc(F)cc2)CC1 (stereo partly drawn),22.7,18.2
CN(C)c1ccc(NC(=O)C2CCC2)cc1CN(CC1CCCO1)C(=O)Cc1cccs1 (stereo not drawn),-30.5,-17.3
COCCNC(=O)CN1CN(c2ccccc2)C2(CCN(C(=O)Nc3ccc(C#N)cc3)CC2)C1=O,20.6,27.1
Cc1cnc2c(C(=O)N(C)Cc3nc4ccc(F)cc4[nH]3)cnn2c1,-1.7,-8.0
CCCc1cc(CN(C)C(=O)CC2(c3ccccc3C)CC(=O)N(Cc3ccncc3)C2=O)[nH]n1 (stereo not drawn),14.5,2.7
CSCCNC(=O)C1(C)CCN1C(=O)Cc1ccc(C(C)(C)C)cc1 (stereo not drawn),-1.9,-4.9
CSc1nnc(C)c(=O)n1COC(=O)c1ccc(Br)cc1,1.9,1.6
CC(C)CNC(=O)C1(C)CCCN1C(=O)c1ccc2ccccc2n1 (stereo not drawn),6.5,1.5
COc1cccc(CN2CC(C(=O)N3CCC(OCc4ccccc4)CC3)CCC2=O)c1 (stereo not drawn),6.2,5.9
CCN(Cc1noc(C2CCC2)n1)C(=O)CSc1nnc(C)s1,-3.0,-8.2
Cc1nc(-c2ccc(-c3cccs3)s2)n(CC(=O)NOCc2ccccc2)c1C,7.9,2.0
Cc1cccc(CN2CCN(C(=O)c3cc(C)c(C)n(C)c3=O)C(C)C2=O)c1 (stereo not drawn),0.1,-5.2
C#CCOC(=O)c1ccccc1C(=O)N(CC)CC,-1.9,0.8

# Looked up above.
# CN1CCNC(=O)C1CC(=O)N1CCN(CCc2ccncc2)CC1 (stereo not drawn) – NPYLR7 ag: -0.5
# O=C(C1CCCN(S(=O)(=O)N2CCOCC2)C1)N1CCCCC1 (stereo not drawn) – NPYLR7 ag max-min: 0.4

# An excerpt; the hit share may differ from the screen's.
